HPGD inh – blocks human HPGD enzyme activity. purified HPGD, NADH fluorescence kinetic, PGE2 substrate. 4.3% of 150,000 active. Potency, µM, for inactives: at the highest dose activity change, negative = inhibition, hits mostly inhibitors; active = well fitted inhibition curve with a large enough effect (not every such curve was filed as active); inconclusive = small, poorly fitted or top-dose-only effect, or another doubt; inactive = no such curve, though single readings can be large or run the other way;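 also: top concentration of the series not given in the record; plate controls included wells without enzyme; inactives centre near -10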
Target sequence (P15428 whole entry, looked up): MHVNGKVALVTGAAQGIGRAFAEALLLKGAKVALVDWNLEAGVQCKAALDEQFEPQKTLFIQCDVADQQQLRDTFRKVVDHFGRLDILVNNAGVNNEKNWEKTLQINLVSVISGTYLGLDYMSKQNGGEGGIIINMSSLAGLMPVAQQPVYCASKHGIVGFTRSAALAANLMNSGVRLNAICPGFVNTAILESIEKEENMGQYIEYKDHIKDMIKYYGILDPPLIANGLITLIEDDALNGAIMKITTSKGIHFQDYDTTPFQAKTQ
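NADH formation kinetics: reaction with 30 uM PGE2 and 1 mM NAD+ (final), 20 nM enzyme, Tris-HCl pH 8 with Tween 20, after 15 min compound preincubation at room temperature. Fluorescence change, last versus first of five reads.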
The depositor's hits bear a star; u = inconclusive; [ ] = remark or other dose. % is scaled to controls: 0 for no effect and ±100 for the full control effect; potency is read from the fitted curve at half-maximal effect.

Start of the listing, in advance, 5 compounds:
SMILES	HPGD inh
CC(=O)c1c(C)[nH]c(C(=O)OCC(=O)C(C)(C)C)c1C	-5.6%
COc1cccc(C2CC(=O)NC(SC)=C2C#N)c1 (configuration not stated)	-12.6%
CCOc1cc(CNc2ccc(CNc3ncn[nH]3)cc2)ccc1OCc1ccccc1	-9.1%
Cc1cc(C)n2cc(CSc3nnnn3C)nc2n1	u
Cc1[nH]c2ccccc2c1C1(O)C(=O)N(C(C)C)c2ccccc21 (configuration not stated)	-2.2%

The whole of this part, repeating the preview:
SMILES	HPGD inh
CC(=O)c1c(C)[nH]c(C(=O)OCC(=O)C(C)(C)C)c1C	-5.6%
COc1cccc(C2CC(=O)NC(SC)=C2C#N)c1 (configuration not stated)	-12.6%
CCOc1cc(CNc2ccc(CNc3ncn[nH]3)cc2)ccc1OCc1ccccc1	-9.1%
Cc1cc(C)n2cc(CSc3nnnn3C)nc2n1	u
Cc1[nH]c2ccccc2c1C1(O)C(=O)N(C(C)C)c2ccccc21 (configuration not stated)	-2.2%
CCn1c(O)c(/C=N/N=C2CCCC2)c2ccc(C3=NNC(=O)CC3)cc21	15.8µM*
COc1cc(OC)cc(C(=O)Nc2cccc(C(C)=O)c2)c1	-15.2%
CCN(CC)CCCCC1CCN(CC(=O)N2c3ccccc3C(=O)Nc3cccnc32)CC1	-14.2%
CC(NS(=O)(=O)c1ccc(Cl)cc1)C(=O)NCc1ccco1 (configuration not stated)	-8.2%
CCN1CCN(C(=O)c2ccc(CSc3ccc(C)cc3)cc2)CC1	14.1µM*
COC(=O)C1C(c2ccc(OC)c(OC)c2)NC(c2ccc(OC)c(OC)c2)C(C(=O)OC)S1(=O)=O (configuration not stated)	-7.3%
O=c1c(Cl)c(NCc2ccccc2)cnn1C12CC3CC(CC(C3)C1)C2	-20.9%
CCNc1oc(-c2cccc3ccccc23)nc1C#N	43.7%[activator]
CC(/C=C/c1ccccc1F)=N\NC(=O)C(C)C	-6.6%
COc1ccc(C2=CC3=CC(=O)C(C)(O)C(=O)C3=CO2)cc1 (configuration not stated)	-7.0%
Cc1ccc(-c2nsc(SCC(=O)NCc3ccc4c(c3)OCO4)n2)cc1	-8.0%
COc1ccc(NC(=O)CSc2nc3c(c(=O)n2-c2ccccc2)SCC3)c(OC)c1	2.1%
COc1ccc(S(=O)(=O)NCc2cn3c(C)csc3n2)cc1F	u
Cc1cccc(C2CC(c3ccc(Cl)cc3)Nc3nc(N)nn32)c1 (configuration not stated)	-8.1%
CCOCCCNC(=O)c1ccc2c(c1)ncn2C1CCCC1	17.8µM*
CC(=O)NCc1ccc2[nH]c(C)cc2c1	-15.5%
Cc1ccc(C(c2ccc(C)o2)c2cccc([N+](=O)[O-])c2O)o1	-13.5%
CCSc1cc(N2CCCC2)nc(-c2ccccc2)n1	-5.4%
COc1ccccc1-c1nnc(Nc2nc3c(OC)cccc3s2)o1	u
O=C(NCc1cccs1)c1ccccc1C(=O)NCc1cccs1	-4.1%

The final 2 records of the section above lead into the next.
SMILES	HPGD inh
COc1ccccc1-c1nnc(Nc2nc3c(OC)cccc3s2)o1	u
O=C(NCc1cccs1)c1ccccc1C(=O)NCc1cccs1	-4.1%
O=C(Cn1cnc2c(nnn2Cc2ccc(Cl)cc2)c1=O)NC1CCCC1	-9.5%
O=C(NCc1cccs1)C1CCN(S(=O)(=O)c2cccc3cccnc23)CC1	-1.6%
CCOC(=O)C1=C(C)N(CCCCCC(=O)O)C(=O)NC1c1ccccc1OC(=O)c1cccs1 (configuration not stated)	-22.3%
Cn1c(-c2ccc(Br)o2)nc2ccccc21	-11.5%
CCCC(=O)Nc1ccc2c(c1)c1ccccc1n2CC	-21.9%
CCCCNC(=O)C(C#N)c1nc2ccccc2nc1N1CCCC1 (configuration not stated)	-9.2%
COc1cccc(NC(=O)Nc2c(C)n(C)n(-c3ccccc3)c2=O)c1	-6.7%
Cc1cccc(C)c1-n1nnnc1SCSc1nnnn1-c1c(C)cccc1C	-2.0%
COc1ccc(N2C(=O)c3ccccc3NC2c2ccc(OC)c(COc3ccccn3)c2)cc1 (configuration not stated)	-24.1%
Cc1csc(=NC(=O)c2ccccc2)n1Cc1ccco1	-15.5%
C=CCc1c(C)nc(-c2ccccc2)nc1N/N=C(\C)c1ccccc1	u
CCOC(=O)N1CCN(c2c(N3CCOCC3)c(=O)c2=O)CC1	-19.0%
O=C(Nc1cccc(F)c1)C1C2C=CC3(CN(CCCN4CCOCC4)C(=O)C13)O2 (configuration not stated)	-14.8%
Cc1nn(Cc2cccc(C(=O)N3N=C(C(F)F)CC3(O)C(F)F)c2)c(C)c1[N+](=O)[O-] (configuration not stated)	-11.7%
CCN(CC)CCNC(C(=O)Nc1cc(C(F)(F)F)ccc1Cl)c1ccccc1 (configuration not stated)	-6.2%
COC(=O)c1sccc1NC(=O)c1cc2c(s1)CCCC2	u
O=C(C[n+]1cccc2ccccc21)c1ccccc1	-23.8%
C=CCNC(=S)N/N=C/c1cn(-c2ccccc2)nc1-c1ccc(OC)cc1	-16.6%
CCNC(=O)c1cccc(S(=O)(=O)N2CCCCCC2)c1	1.4%
Cc1ccc(S(=O)(=O)NC2=NCN(Cc3ccccc3)CN2)cc1	-12.7%
NCCC(O)(P(=O)(O)O)P(=O)(O)O	-9.6%
O=C(O)CN(Cc1ccco1)S(=O)(=O)c1ccccc1	-7.6%
O=c1cnnc(SCCc2ccccc2)[nH]1	-8.5%
O=C(O)c1cccc(NCc2ccncc2)c1	-26.5%
COc1cccc(N=C2C(=O)N3CCCc4cccc2c43)c1	-11.3%
SMILES	HPGD inh
CCN(CC)c1ccc(/C=N/NC(=S)NCc2ccc(OC)cc2)cc1	u
Cc1ccc(S(=O)(=O)N2CCOCC2)cc1C(=O)Nc1nc2ccccc2[nH]1	-10.5%
O=C(Nc1ccc2ccccc2c1)c1cn(-c2ccccc2)nc1-c1cccs1	u
CSc1nc(-c2ccco2)nn1C(=O)c1ccccc1	14.1µM*
Cc1cc(C)cc(-n2cnc3cc(C(=O)O)ccc32)c1	15.8µM*
Cc1[nH]c2ccccc2c1C(=O)CSc1nc2cc(S(=O)(=O)N3CCCCC3)ccc2o1	-3.4%
O=c1c2cc(-c3ccccc3)sc2ncn1/N=C/c1ccco1	u
CCn1c(SCC(=O)Nc2cc(C)ccc2C)nnc1-c1cnccn1	-8.8%
CCN(CC)S(=O)(=O)c1cc(Br)c(C)cc1OC	-4.8%
CCOc1ccc2nc(SCc3ccc(C(=O)OC)o3)[nH]c2c1	-24.8%
Fc1cnc(N2CCOCC2)nc1NCc1ccccc1	-19.6%
CCC(Sc1nc2ccccc2c2nc3ccccc3n12)C(=O)NCc1ccco1 (configuration not stated)	-13.2%
C=CCn1c(SCC(=O)Nc2ccc3c(c2)CCC3)nc2ccccc2c1=O	-9.9%
C=CCN(C(=O)CNC(=O)c1ccco1)C(C(=O)NC1CCCCC1)c1ccc(OC)cc1OC (configuration not stated)	-0.3%
C1CCOC1	-3.5%
N#CC(C(=O)Nc1ccccc1)=C1Nc2ccccc2N1	-27.5%
O=S(=O)(CC(CN1CCCC1)N1CCCC1)c1ccc2ccccc2c1 (configuration not stated)	-11.3%
Nc1ccc(N(c2ccccc2)c2ccc(N)cc2)cc1	-4.5%
O=C(NC(=O)c1ccncc1)NC(c1ccccc1)c1ccccc1	-8.9%
C[C@H](NC(=O)C1(c2ccccc2)CCN(C(=O)[C@H]2CSCN2C(=O)OC(C)(C)C)CC1)C(=O)O	-2.2%
COc1ccc(N(C(=O)COc2ccccc2)C2C=CS(=O)(=O)C2)c(OC)c1 (configuration not stated)	-5.7%
CCOCCCNC(=O)CCCC1=NS(=O)(=O)c2ccccc2N1	-7.1%
N#CCCN(C1CCCCC1)S(=O)(=O)CCOc1ccccc1	-3.5%
COc1ccc(NC(=O)C2CCCN(S(=O)(=O)c3cccc4cccnc34)C2)cc1OC (configuration not stated)	-1.4%
O=C1CN(S(=O)(=O)c2ccc(Cl)cc2)CC(=O)N1CCc1ccccc1	-7.5%
SMILES	HPGD inh
CCOc1cc(CNCCc2ccc(S(N)(=O)=O)cc2)ccc1OCc1ccc(Cl)cc1	-4.1%
O=C(O)[C@H]1CCCC[C@H]1C(=O)NCCc1ccccc1	-5.9%
CCOc1ccc(C2c3cc(OC)c(OC)cc3CC(=O)N2c2ccc(OC)cc2)cc1 (configuration not stated)	-5.4%
CCCCOc1ccc(C(=O)Nc2ccc(C)cc2[N+](=O)[O-])cc1	-22.4%
CC(C)c1nc2cc3ccccc3cc2[nH]1	-27.5%
O=[N+]([O-])c1ccc(NC(=S)N2CCN(c3ccccc3)CC2)cc1	-14.7%
O=C(CN(CCc1ccccc1)S(=O)(=O)c1ccc(Br)cc1)N/N=C/c1ccc2c(c1)OCO2	-17.1%
CCC12C(=O)C(CC)(C(c3ccccc3)=C1c1ccccc1)[C@@H]1C(=O)N(c3ccccc3)C(=O)C12 (some centres not stated)	-10.3%
Cc1cc(OCC(=O)N(C(C)C)C(C)C)cc(C)c1Br	-28.1%
Cc1ccc(C(NC(=O)N2CCCCC2)=C(Cl)Cl)cc1F	-14.1%
CCCC/C(C)=N/NC(=O)Nc1ccccc1	-7.6%
C=CCc1cccc2cc(NC(C)=O)c(=O)oc12	-23.6%
COc1ccc(C(=O)N2CCc3cc(OC)c(OC)cc3C2c2cccc([N+](=O)[O-])c2)cc1 (configuration not stated)	-20.8%
COc1ccccc1/C=C/C=C1\Oc2c(ccc(O)c2CN2CCN(CCO)CC2)C1=O	15.8µM*
CC12CCC(C(=O)N3CCN(c4ncccn4)CC3)(c3nc4ccccc4nc31)C2(C)C (configuration not stated)	-5.3%
C=CCSC1=N/C(=C/c2ccsc2)C(=O)N1c1ccccc1	-14.9%
COc1cc(CCNC(=O)c2cnn3ccccc23)cc(OC)c1OC	-15.3%
O=S1(=O)CCN2C(=N1)SC1=C2CCN(Cc2ccccc2)C1	-18.3%
N[C@H](Cc1c[nH]c2ccccc12)C(=O)O	-5.8%
COc1ccc(NC(=O)CO/N=C2\CCCc3nonc32)cc1	-9.3%
O=C(CSCc1ccccc1)Nc1ccc(Cl)cn1	-16.5%
O=C(c1ccccc1)c1coc2ccc(O)c(Cl)c12	14.1µM*
O=C1NCCNC(=O)c2ccccc2OCCOc2ccccc21	-4.4%
Brc1ccccc1OCCCn1cnc2ccccc21	-23.0%
CCOc1cccc(OCCn2cnc3ccccc3c2=O)c1	0.9%
SMILES	HPGD inh
CC(C)(C)n1nnnc1C(c1ccccc1F)N(Cc1ccco1)CC1CCCO1 (configuration not stated)	-1.2%
CC(CC(=O)N1CCN(c2ccccc2F)CC1)c1ccccc1 (configuration not stated)	-12.7%
CC1=C2C3OC(=O)C(C)[C@@H]3CC[C@](C)(O)C2C2C3C4C5(C12)[C@H]1OC(=O)[C@@H](C)C1CC[C@]4(C)O[C@]5(C)[C@@H]3O (some centres not stated)	-6.5%
CC(=O)Nc1ccc(S(=O)(=O)NCc2ccc(C(=O)NCCN3CCCCCC3)cc2)cc1	0.0%
CCN(CC)S(=O)(=O)c1ccc(F)c(C(=O)NCCCN2CCOCC2)c1	-14.4%
CN(C)c1ccc(C=Nc2ccccc2)cc1	-16.3%
CC(=O)c1ccc(OC2OCCOC2Oc2ccc(C(C)=O)cc2)cc1 (configuration not stated)	-2.3%
N#CC12CCCCC1CC1CCCCC1(C#N)N2Cc1ccccn1 (configuration not stated)	-8.3%
O=C(O)CCc1ccc(-c2cccs2)n1NC(=O)c1ccco1	-3.4%
CCOC(=O)c1ccccc1NC1c2ccccc2C(=O)N1C1CCN(C(=O)OCC)CC1 (configuration not stated)	u
COc1ccc(OC)c(C2=NOC(C(=O)Nc3cccnc3)C2)c1 (configuration not stated)	u
COc1ccc(NC(=O)CSc2nc3[nH]ncc3c(=O)n2-c2ccccc2C)cc1OC	-8.3%
COC(=O)c1c(C#N)c(N)nc2c1CCC2	u
CCOC(=O)C1=C(O)C(=O)N(c2ccc(S(N)(=O)=O)cc2)C1c1ccc(OC)cc1OC (configuration not stated)	-9.8%
O=C(N/N=C/c1c[nH]c2ccccc12)c1ccncc1	-16.1%
Cc1ccc(S(=O)(=O)N/N=C/c2ccc(OC3CSC3)cc2)cc1	-8.6%
Cc1cccc(OCC(=O)NNc2c3ccccc3nc3ccccc23)c1	-3.4%
COc1ccc(S(=O)(=O)N2CCN(Cc3ccc4c(c3)OCO4)CC2)c2ccccc12	-26.9%
O=S(=O)(Nc1cccc2nsnc12)c1ccccc1	-8.6%
Cn1c(C(=O)NCc2ccccn2)cc2c(=O)n(C)c3ccccc3c21	u
COc1ccc2c(-c3cc4ccc(OCc5ccc(F)cc5)cc4oc3=O)cc(=O)oc2c1	-18.7%
CN(Cc1ccccc1)S(=O)(=O)c1ccc(NC(=S)NC(=O)C(C)(C)C)cc1	-15.2%
Cc1ccc(-n2cc(-c3ccccc3)c3c(=O)[nH]cnc32)cc1	-6.4%
CCCCCCCn1ccc(=N)cc1	-3.2%
CCC(C)(C)n1nnnc1C(c1cc2cccc(C)c2[nH]c1=O)N1CCN(C(=O)c2ccco2)CC1 (configuration not stated)	u

Looked up above:
CN(Cc1ccccc1)S(=O)(=O)c1ccc(NC(=S)NC(=O)C(C)(C)C)cc1 – HPGD inh: -15.2%
CC(=O)c1ccc(OC2OCCOC2Oc2ccc(C(C)=O)cc2)cc1 (configuration not stated) – HPGD inh: -2.3%

(listing goes on)
SMILES	HPGD inh
CCOc1ccc(S(=O)(=O)N(C(=O)c2ccco2)c2cc3sc(=O)oc3c3ccccc23)cc1	-29.2%
O=C(Cc1ccccc1)NCc1ccc(F)cc1	-22.4%
CCN1CCN(Cc2nc3c(c(=O)n(C)c(=O)n3C)n2CC(=O)c2ccccc2)CC1	0.0%
O=C(CC1SC2=NCCN2C1=O)Nc1ccc(Br)cc1 (configuration not stated)	-2.7%
COc1cc(OC)cc(C(=O)NC2CCSC2=O)c1 (configuration not stated)	-7.7%
O=C1C(Cl)=C(NC2CCCCC2)C(=O)N1c1ccc(Cl)cc1	-7.7%
Cc1occc1-c1nnc(SCC(=O)NC(=O)NC(C)C)n1N	-9.3%

From PubChem BioAssay

The list is partial; the hit share may differ from the screen's.
